# TRPML1 agonist – agonists of human TRPML1 channel; TRPML1-expressing cells, Ca2+ dye fluorescence, FDSS; host cell line not named in the record; reference of the full effect not given here; activation, % (test concentration not listed); Q9GZU1; 410,000 tested, 0.12% active; AID 624414; in the data active = activation above about 50%; inconclusive = about 30% to 50%; inactive = below about 30%; also: 0% is about no effect; the text of the record puts the active cut at 80%
# Target sequence (Q9GZU1 whole entry, looked up): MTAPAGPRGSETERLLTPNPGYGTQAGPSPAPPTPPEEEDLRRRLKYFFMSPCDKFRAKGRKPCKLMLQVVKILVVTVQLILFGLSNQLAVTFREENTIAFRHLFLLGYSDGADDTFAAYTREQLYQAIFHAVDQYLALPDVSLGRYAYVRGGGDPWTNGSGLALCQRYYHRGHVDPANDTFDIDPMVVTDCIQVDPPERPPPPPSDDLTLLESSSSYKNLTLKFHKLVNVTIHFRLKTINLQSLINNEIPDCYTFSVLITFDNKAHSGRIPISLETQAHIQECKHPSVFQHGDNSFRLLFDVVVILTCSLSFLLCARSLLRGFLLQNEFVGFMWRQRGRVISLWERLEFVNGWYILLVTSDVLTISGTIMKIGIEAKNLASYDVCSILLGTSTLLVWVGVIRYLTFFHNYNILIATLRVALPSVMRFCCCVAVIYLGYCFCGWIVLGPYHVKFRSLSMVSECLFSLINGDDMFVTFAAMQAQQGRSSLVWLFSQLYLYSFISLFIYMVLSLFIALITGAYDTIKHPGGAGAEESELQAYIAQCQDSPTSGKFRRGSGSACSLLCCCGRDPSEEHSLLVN
#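 TRPML1-DL cells, Tet-induced overnight (~16 h, 37 degrees C), loaded 45-90 min at room temperature with Ca8 no-wash calcium dye plus quencher. FDSS fluorescence: 10 s baseline, compound pin-transfer, 110 s agonist read, then EC80 54-4 (4uM final) and 110 s antagonist read.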
# TRPML1 blocker – human mucolipin-1 channel inhibition; Q9GZU1; TRPML1-inducible cells, Ca2+ dye fluorescence, FDSS; stronger effect = lower value; inhibition of EC80 agonist-evoked calcium signal; activity change, negative = inhibition, % (no concentration beside the values); 390,000 tested, 0.02% active; AID 624415; in the data active means activity change below about -50%; inconclusive means about -30% to -50%; inactive means above about -30%;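 also: stimulus is agonist 54-4 at its EC80 concentration; % is scaled to controls: 0 for no effect and ±100 for the full control effect; compound concentration not given in the record; the text of the record puts the active cut at -80%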
#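 TRPML1-DL cells, Tet-induced overnight (~16 h, 37 °C) at 1,500 cells/well, were loaded with Ca8 no-wash dye plus quencher for 45-90 min at room temperature. Compounds were pinned during FDSS kinetic reading; agonist 54-4 at EC80 (4 uM final) then added.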
# PINK1 expr mod – PINK1 expression modulation; 410,000 tested, 0.2% active; PINK1 immunofluorescence, high-content cytometry, 24 h; Potency, µM (series often up to 76.6 µM), inactives show at the top dose activation (PINK1 increase), actives largely listed as activators; active = well fitted activation curve with a large enough effect; inconclusive = small, poorly fitted or top-dose-only effect; inactive = flat fitted curve, though single readings scatter; cell line not stated here;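 also: potency is read from the fitted curve at half-maximal effect; % of control where 0% means no effect; nearly all actives have a fitted effect of over 65% in size; a mitochondrial uncoupler was the plate control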
#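 Measures PINK1 amount and localization on or inside mitochondria by immunofluorescence. Stable cells get compounds at 5 concentrations for 24 hours before fixation and staining; CCCP controls included.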
# Six1-Eya2 inh – Six1/Eya2 interaction inhibition. AlphaScreen GST-Six1/His-Eya2 binding, biochemical; stronger effect = lower value; control for the full effect not named in the record. activity change, % (no concentration beside the values). 360,000 tested, 0.56% active. AID 651725; in the data active = activity change below about -65%; inconclusive = about -30% to -65%; inactive = above about -30%; also: % is scaled to controls: 0 for no effect and ±100 for the full control effect; compound concentration not given in the record
#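 Homogeneous AlphaScreen proximity assay pairing GST-Six1 with His-tagged Eya2 (added as 5X mix: 250 nM and 500 nM) in 50 mM Tris pH 8.0, 300 mM NaCl, 1 mM TCEP. Glutathione donor and nickel acceptor beads; 1 h, 37 °C, dark.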
# CtBP-E1A inh – CtBP/E1A binding inhibition; activity change, % (no concentration beside the values); AlphaScreen GST-E1A/His-CtBP binding, 1536-well; stronger effect = lower value; control for the full effect not named in the record; 340,000 tested, 0.49% active; in the data active means activity change below about -65%; inconclusive means about -30% to -65%; inactive means above about -30%; also: % is scaled to controls: 0 for no effect and ±100 for the full control effect; compound concentration not given in the record
#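 Protein mix (5X: 125 nM each GST-E1A, His-CtBP) was incubated with pinned compound 2 h at 37 deg C in dark, in 50 mM Tris pH 8.0 buffer with 300 mM NaCl. Glutathione donor and nickel acceptor beads followed; AlphaScreen signal read after 1 h.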
# D2 agonist – human D2 receptor agonism in beta-arrestin assay. 360,000 tested, 0.084% active. activation, % (no concentration beside the values). P14416. DiscoveRx PathHunter D2 beta-arrestin, luminescence, 90 min; 100% = 57 uM dopamine signal; in the data active = activation above about 40%; inconclusive = about 15% to 40%; inactive = below about 15%; also: compound concentration not given in the record; the text of the record calls up to 30% inactive
# Target sequence (P14416 whole entry, looked up): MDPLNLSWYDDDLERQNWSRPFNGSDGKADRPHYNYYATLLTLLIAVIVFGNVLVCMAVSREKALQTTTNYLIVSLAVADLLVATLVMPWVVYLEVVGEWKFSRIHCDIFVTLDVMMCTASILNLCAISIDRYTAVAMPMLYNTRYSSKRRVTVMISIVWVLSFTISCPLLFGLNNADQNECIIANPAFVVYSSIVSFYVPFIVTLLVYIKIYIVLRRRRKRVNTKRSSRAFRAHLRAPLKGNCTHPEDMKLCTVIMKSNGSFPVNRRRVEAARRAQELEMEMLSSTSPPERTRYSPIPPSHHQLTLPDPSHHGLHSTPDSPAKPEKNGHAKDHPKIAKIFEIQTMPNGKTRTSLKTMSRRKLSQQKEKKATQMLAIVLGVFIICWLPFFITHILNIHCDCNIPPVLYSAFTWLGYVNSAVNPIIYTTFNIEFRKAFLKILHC
#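 Agonist mode: compounds alone added to overnight-plated D2 PathHunter cells for 90 min at 37 C, with 57 uM final dopamine (EC100) defining full response. Beta-arrestin recruitment detected by chemiluminescent reagent, read after 1 h at ambient temperature.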
# Numbers without * were called inactive; ? = inconclusive; / = not tested or not shown; & = joins results of further samples; [ ] = another dose, or the depositor's remark.
no.	structure	CtBP-E1A inh	TRPML1 blocker	TRPML1 agonist	PINK1 expr mod	Six1-Eya2 inh	D2 agonist
1	COc1ccc(S(=O)(=O)N2CCOCC2)cc1NC(=O)COC(=O)C1COc2ccccc2O1 (stereo unspecified)	5	56	0.1	-1.1%	14	-4.7
2	C/C(=N\NC(=O)c1nnn(-c2nonc2N)c1-c1ccccc1)c1cccnc1	5	5	-0.5	-0.3%	8	-1.3
3	O=C(Nc1ccccc1C(=O)O)c1cncc(Br)c1	0	5	1.4	/	-3	1.3
4	CSCC[C@H](NC(=O)OC(C)(C)C)C(=O)N1CCC(C(=O)N[C@H](C(=O)O)C(C)C)CC1	6	-13	0.5	/	5	-1.4
5	Brc1ccccc1-n1nnc(-c2ccnc3ccccc23)n1	-15	22	0.8	-0.7%	-11	-2.3
6	CC(=O)Nc1n[nH]c(=S)s1	-7	-20	0.1	0.8%	-12	-6.5
7	Cc1cccc(S(=O)(=O)c2cn(Cc3ccccc3)c3cc(N4CCC(C)CC4)c(F)cc3c2=O)c1	/	2	1.2	0.2%	/	/
8	CC(C)[C@H](NC(=O)N1CCC(Cc2ccccc2)CC1)C(=O)O	-9	/	/	0.3%	-17	-6.3
9	O=C(O)Cc1ccc2c(c1)N(S(=O)(=O)c1cccc(C(F)(F)F)c1)CC(C(=O)O)O2 (stereo unspecified)	3	-5	-0.3	4.3%	8	-0.5
10	O=C(Cc1ccccc1)NCC1CCCO1 (stereo unspecified)	4	-10	0.8	?	5	1.6
11	CC(=NNC(=O)CSc1nc2ccccc2o1)c1ccco1	4	11	0.9	6.2%	3	-4.9
12	O=C(OC1C2CCC1C1CN(CCc3ccccc3)CC12)c1ccccc1 (stereo unspecified)	0	2	0.9	2.6%	-14	0.2
13	c1cncc(C2SCCCS2)c1	0	13	-0.3	-0.5%	-9	-5.2
14	CCc1ccc2c(c1)C(=O)c1ccccc1C2=O	?	7	1.1	-2.8%	?	-0.7
15	Cn1cccc1C(=O)NC(=O)CSc1nnc(C2CC2)n1-c1ccccc1	1	8	0.3	-0.8%	0	-4.8
16	CCCN(CC(=O)Nc1ccccc1C)C(=O)c1ccc(N2CCCCC2)c([N+](=O)[O-])c1	-2	-7	-0.3	2.7%	-17	0.3
17	Cc1ccc(N2Cc3ccccc3OC(C)C2=O)cc1 (stereo unspecified)	0	-4	-1.3	0.0%	1	-1.8
18	COCCn1nnnc1SCC(=O)NCc1ccc2c(c1)OCO2	3	13	-0.4	-1.5%	10	-3.0
19	NC(=O)NC(c1ccccc1)c1ccccc1F (stereo unspecified)	11	1	-0.8	6.4%[38.3 µM]	11	1.3
20	COc1ccc(CN2CNc3nc4ccccc4n3C2)cc1	4	-12	-0.2	/	-5	-2.1
21	O=C(NC1CCS(=O)(=O)C1)c1cc2c(=O)n3ccccc3nc2n1Cc1ccccc1 (stereo unspecified)	4	-10	-0.1	-0.7%	-1	-3.7
22	O=C1CCN(Cc2ccc([N+](=O)[O-])cc2)CCN1[C@H](CO)c1ccccc1	4	-8	-0.3&0.1	0.3%	2	-1.6
23	C=CCc1ccccc1OCCSc1nc(-c2cccs2)nc2cc(=O)[nH]n12	/	49	0.7	2.6%	/	/
24	CCc1ccccc1Nc1cc(C(=O)NCc2ccccn2)c2ccccc2n1	-1	2	-0.2	-0.5%	0	-1.6
25	CC(C)(Oc1ccc(CCNC(=O)c2ccc(Cl)cc2)cc1)C(=O)O	3	-1	-0.8	0.6%	-3	-3.7
26	CCOC(=O)C1=C(C)NC(C)=C(C(=O)OCC)C1c1cccc(C)n1	12	23	0.9	2.3%	16	-2.4
27	COc1ccccc1NC(=O)CSc1nnc(CNC(=O)c2cccs2)o1	0	-14	-0.8	-0.2%	1	-10
28	COc1ccccc1COCC(O)CN1CCN(S(=O)(=O)c2cccc(F)c2)CC1 (stereo unspecified)	9	-16	1.8	1.1%	7	?
29	O=C(CSc1nc(=O)n2ccccc2n1)N1CCN(c2ccccc2)CC1	-16	-10	-0.6	0.9%	-3	-2.8
30	CCOC(=O)C(C)Sc1nc(-c2ccccc2)ccc1C#N (stereo unspecified)	/	39	5.8	10%	/	/
31	O=C1c2ccccc2C(=O)N1CC(O)CNc1ccc(Br)cc1 (stereo unspecified)	9	29	-0.3	0.3%	3	-7.9
32	C[C@@H]1CCCCO[C@H](CN(C)S(=O)(=O)c2ccccc2)[C@@H](C)CN([C@H](C)CO)C(=O)c2cc(NC(=O)Cc3ccccc3)ccc2O1	4	-5	0.5	-0.6%	-4	1.6
33	Cc1oc(-c2cccs2)cc1C(=O)N1CCCC(C)(C(=O)O)C1 (stereo unspecified)	11	/	-0.3	0.7%	5	-5.7
34	Nc1nc(SCc2ccc(Cl)cc2)ns1	0	10	2.5	3.7%	-2	-0.6
35	Cc1cc(NS(=O)(=O)c2ccc(NC(=O)/C=C/c3ccco3)cc2)nc(C)n1	-13	9	1.3	-0.4%	-17	0.8
36	C(=N\Nc1ccccn1)/c1cccnc1	/	-1	0.3	-1.3%	-1	-1.0
37	Cc1c(NC(C)C)c(=O)n(-c2ccccc2)n1C	-7	-12	0.9	4.2%	1	-6.8
38	CC(C)Oc1ccc(C(=O)NC(=S)N2CCOCC2)cc1	2	-29	0.0	0.0%	8	-1.2
39	Cc1cccc2c1-c1sc(C(=O)N(C)c3cccc(C(F)(F)F)c3)cc1CO2	/	7	0.6	11%	/	/
40	CC(C)(C)C(=O)c1c(N)[nH]c(C(=O)c2ccccc2)c1-c1c(F)cccc1F	-4	/	-0.9	6.7%	0	/
41	O=C(NCc1ccccc1)c1ccc2c(c1)C(=O)N(Cc1ccncc1)C2=O	-8	-2	-1.2	-0.3%	-1	-6.5
42	C=CCc1cccc(/C=C/c2cc(=O)c3ccccc3[nH]2)c1O	5	24	1.8	?	3	-2.0
43	CC(=O)n1nc(-c2ccccc2)nc1NCc1cccs1	10	-13	-0.8	0.9%	2	-13
44	COc1cccc(CC(=O)OCC(=O)c2cc(OC)ccc2OC)c1	10	8	0.4	4.5%	14	-1.8
45	O=C(/C=C/c1ccccc1)OCCCCN=C1NS(=O)(=O)c2ccccc21	-3	-7	-0.8	3.6%	-5	4.2
46	CC1CCC(NC(=O)c2ccc(CS(=O)(=O)c3cccc(C(F)(F)F)c3)o2)CC1 (stereo unspecified)	/	-3	-0.6	2.1%	/	/
47	O=C(Nc1ccc(F)c(Cl)c1)c1cc(S(=O)(=O)N2CCc3ccccc3C2)ccc1F	/	82	1.3	0.2%	/	/
48	Cc1ccc(CCN2CC(C(=O)NC(C)C)CC2=O)cc1 (stereo unspecified)	0	5	0.2	0.6%	6	-0.2
49	COC(=O)Cc1c(C)nc2nc(NCc3cccc([N+](=O)[O-])c3)[nH]n2c1=O	5	-6	2.7	-2.6%[38.3 µM]	1	-0.1
50	CCCc1cn(S(=O)(=O)c2ccc(OC)cc2OC)nc1N	-5	6	0.9	4.2%[38.3 µM]	-2	0.2
51	CC(=O)c1cccc(NC(=O)C(C)OC(=O)CCN=C2NS(=O)(=O)c3ccccc32)c1 (stereo unspecified)	0	-2	0.7	7.2%	23	-5.7
52	O=C(NC1CCCCC1)C(C1CC1)N1CCc2ccccc2C1 (stereo unspecified)	6	/	-0.2	0.7%	6	-5.7
53	CN(C)CCNC(=O)c1ccc(Cl)c2cc3ccccc3nc12	-11	21	3.9	-2.0%	10	-6.0
54	CC(C)Cc1ccc(CN2CCCC(NC(=O)CCn3cnnn3)C2)cc1 (stereo unspecified)	-11	-17	0.2	-1.7%	13	-4.8
55	CCOC(=O)C1=C(COC(=O)c2cc(S(=O)(=O)N(C)C)ccc2C)NC(=O)NC1C (stereo unspecified)	-10	-9	-0.2	-2.4%	7	0.7
56	Cc1cc(N(CC(=O)O)S(C)(=O)=O)ccc1Br	0	-2	0.6	-0.6%	10	-1.9
57	Cn1cc(Br)c(C(=O)Nc2sc3c(c2C(N)=O)CCC3)n1	-79*	2	-0.1	?	-71*	-2.6
58	COC(=O)c1oc2nc(C)cc(C)c2c1N	-3	23	-0.3	2.7%	-4	0.4
59	C/C(=C\C(=S)Nc1ccccc1)Nc1cccc2ccccc12	-9	-5	2.5	2.0%	-17	-5.6
60	O=C(CSc1ccccc1C(=O)O)NC1CCCCCCC1	0	0	3.0	-2.2%	0	-3.4

# (continued)
no.	structure	CtBP-E1A inh	TRPML1 blocker	TRPML1 agonist	PINK1 expr mod	Six1-Eya2 inh	D2 agonist
61	O=C(c1cccc(C(F)(F)F)c1)C1CCCN(C(=O)Cn2cncn2)C1 (stereo unspecified)	/	14	-0.2	1.7%	-7	-7.6
62	C1CN=C(NC23CC4CC(CC(C4)C2)C3)C1	3	-11	0.2	0.8%	8	-1.1
63	COc1cc2c(cc1OC)C(c1cccs1)N(C(=O)c1cccnc1)CC2 (stereo unspecified)	0	-1	2.6	-2.1%	-2	1.7
64	COC(=O)c1c(NC(=O)CSc2nc3ccccc3c(=O)n2-c2ccccc2)sc(C)c1C	3	0	1.5	8.0%	-2	-3.9
65	COc1ccc(CNC(=O)COC(=O)c2c[nH]c(=O)[nH]c2=O)cc1OC	-3	-3	-0.5	1.0%	-2	-2.1
66	O=C(Nc1ccc(F)cc1)c1cnc(-c2ccccc2)nc1-c1ccccc1	12	-17	0.2	?	2	-0.8
67	COc1ccc(Sc2nnc(Cc3ccccc3)c3ccccc23)cc1	-9	-5	-0.3	3.9%[38.3 µM]	-1	-1.5
68	Cc1ccccc1NC(=S)N1CCN(Cc2ccc3c(c2)OCO3)CC1	2	-4	0.3	-0.8%	-3	-0.1
69	CN1CCN(Cc2c(O)ccc3c2oc(=O)c2ccccc23)CC1	-2	-12	-0.8	0.2%	-1	-2.0
70	C=CCOc1ccc(Br)cc1/C=C1/SC(=Nc2ccc(C(=O)O)cc2)NC1=O	3	9	1.5	0.1%	-7	7.1
71	COc1ccc(C(=O)NCc2nnc(SCC(=O)Nc3cccc(OC)c3)o2)cc1	-2	5	-0.6	1.3%	-3	1.0
72	Cc1cccc(C(=O)NCC(=O)N(C)Cc2nc3ccccc3c(=O)[nH]2)c1	-3	3	-0.4	-1.8%	-2	-7.2
73	O=C(COC(=O)/C=C/c1ccc([N+](=O)[O-])cc1)NC1CCCCC1	/	-16	-0.2	-1.8%	5	-1.0
74	O=C(CCCCCn1c(SCC(=O)c2ccccc2)nc2ccccc2c1=O)NCc1ccco1	-12	-17	5.3	/	-6	6.3

# Three compounds out of the list, arranged by length of the SMILES, descending.
no.	structure	CtBP-E1A inh	TRPML1 blocker	TRPML1 agonist	PINK1 expr mod	Six1-Eya2 inh	D2 agonist
71	COc1ccc(C(=O)NCc2nnc(SCC(=O)Nc3cccc(OC)c3)o2)cc1	-2	5	-0.6	1.3%	-3	1.0
63	COc1cc2c(cc1OC)C(c1cccs1)N(C(=O)c1cccnc1)CC2 (stereo unspecified)	0	-1	2.6	-2.1%	-2	1.7
68	Cc1ccccc1NC(=S)N1CCN(Cc2ccc3c(c2)OCO3)CC1	2	-4	0.3	-0.8%	-3	-0.1
